PABP FP inh – PABP-poly(A) binding inhibition | inhibition, % at 35 µM | actives 1% (n = 290,000) | PABP-poly(A) RNA binding, fluorescence polarization;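 active = 50% or more with normal probe brightness, or confirmed in later tests; inconclusive = above 50% with abnormal brightness, or retests that disagree; inactive = below 50% or failed in later tests; about a fifth of its hits are not listed in these tables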;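 note: calls also rest on retests at 20 µM and on dose response follow-up; controls were probe without protein and protein plus probe with vehicle; some compounds called inactive have numbers as strong as hits; many hits fall short of the cut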
eIF4H inh – inhibitors of RNA binding by human eIF4H; Q15056; inhibition, % at 35 µM; actives 0.94% (n = 290,000); eIF4H fluorescence polarization binding assay;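 active = 50% or more with normal probe brightness, or confirmed in later tests; inconclusive = above 50% with abnormal brightness, or retests that disagree; inactive = below 50% or failed in later tests; about a fifth of its hits are not listed in these tables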;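 note: calls also rest on retests at 20 µM and on dose response follow-up; 0% = protein and probe with vehicle and 100% = probe without protein; strong numbers were not always called active; many hits fall short of the cut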
UUG fidelity – modulators of start codon recognition fidelity in yeast | activity score, % at 18.7 µM | S. cerevisiae UUG-firefly luciferase reporter, luminescence/redox ratio | actives 0.13% (n = 350,000);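 active = replicate mean at a twofold rise or more, about +100% in these data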;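 note: firefly luciferase made from a UUG start codon reports start codon fidelity; reporter light over untreated wells divided by growth signal over untreated wells; some hits fall short of that in this replicate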
Rce1 inh – inhibitors of yeast Ras-converting enzyme; Q03530; yeast membranes, quenched prenylated peptide cleavage fluorescence; calls only; actives 0.27% (n = 290,000);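 active = fall in fluorescence gain of 50% or more versus controls, with final raw signal at or below 3038400; inconclusive = same 50% fall but final raw signal above 3038400; inactive = fall in fluorescence gain under 50%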;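 note: plate controls were neutral control wells for no effect and wells lacking membranes for full effect; tested at 10 µM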
Target sequence (Q03530 whole entry, looked up): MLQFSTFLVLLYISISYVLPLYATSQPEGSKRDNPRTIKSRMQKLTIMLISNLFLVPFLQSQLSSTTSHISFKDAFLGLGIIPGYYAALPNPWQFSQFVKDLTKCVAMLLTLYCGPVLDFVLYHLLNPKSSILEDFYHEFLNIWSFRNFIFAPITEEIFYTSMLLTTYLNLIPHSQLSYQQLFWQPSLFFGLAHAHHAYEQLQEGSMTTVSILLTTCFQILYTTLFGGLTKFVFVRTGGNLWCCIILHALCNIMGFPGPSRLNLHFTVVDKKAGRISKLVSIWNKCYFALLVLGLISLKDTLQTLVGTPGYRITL
Env fusion inh – HIV envelope-mediated fusion inhibition; HeLa-JRFL Env/CEM21 cell fusion, luciferase; inhibition, % at 12.3 µM; actives 1.1% (n = 360,000);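 active = mean replicate inhibition score of at least 50 and every replicate individually at or above 50; inconclusive = only one of the two criteria met; inactive = mean below 50 and not all replicates reaching 50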;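 note: 0% = plate neutral controls and 100% = maraviroc near 300 nM; one replicate is shown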
CSC inhib – cancer stem cell inhibition | cancer stem cell-like cells viability, luminescence | inhibition, % at 7.5 µM | actives 1.1% (n = 300,000) | AID 2717;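 active = mean at 75% or more and at least half the replicates too; inconclusive = mean and replicates disagree; tested in HMLE shEcad cells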;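 note: 0% = median of negative and 100% = median of positive control wells; the first replicate is given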
MT1-MMP act inh – inhibitors of human MT1-MMP activation | AID 651647 | actives 0.061% (n = 360,000) | GFP/RFP ratio change, % at 20 µM | P50281 | HT1080 RFP-PRO-GFP cells, GFP/RFP ratio fluorescence, overnight; percent of plate control window, DMSO zero;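 active = GFP/RFP ratio change of at least 30% with cell ATP level not reduced by more than half and red fluorescence within 50% of control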; note: strong numbers were not always called active
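Material – HT1080 RFP-PRO-GFP cells · Control set – DMSO wells and RFP-L50D-GFP cells · Incubation – overnight cell settling, then overnight compound exposure, 37 °C, 5% CO2 · Compound dosing – single-point 20 µM compound, 1% DMSO · Read-out – GFP/RFP fluorescence ratio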
eIF4H inh retest – second read-out of eIF4H inh, no call of its own (marks repeat the call); inhibition, %; compound at 20 µM; confirmation average;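 mean of two retest wells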
PABP FP inh retest – second read-out of PABP FP inh, no call of its own (marks repeat the call); inhibition, %; compound at 20 µM; confirmation repeats;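 mean of two retest wells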
MT1-MMP act inh RFP – second read-out of MT1-MMP act inh, no call of its own (marks repeat the call); RFP signal change, %; measured here: RFP expression control read;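 0 = vehicle wells; hits needed this value within 50% of zero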
Starred values were filed as active, the others as inactive; i = inactive; ? = inconclusive; . = no result given; & = joins results of further samples.

SMILES	PABP FP inh	eIF4H inh	UUG fidelity	Rce1 inh	Env fusion inh	CSC inhib	MT1-MMP act inh	MT1-MMP act inh RFP	others
CC(C)(C)OC(=O)C[C@@H]1C/C=C\C[C@H](CC(=O)NCCO)C(=O)N[C@@H](c2ccccc2)COC1=O	.	.	-2.0	.	-6.2	5.8	1.9	5.5
O=C(Nc1ccc(NC(=O)C2CCCCC2)nc1)c1ccco1	14.3	10.9	-19.3	i	.	6.0	2.4	0.6
C=CCOC(=O)C1=C(C)Nc2nnnn2C1c1cc(OC)ccc1OC (stereo unspecified)	0.8	2.3	-5.8	.	.	-12.4	-0.9	2.5
O=C(C1CCCCC1)N1C[C@H](n2cc(-c3ccc(F)cc3)nn2)[C@@H](O)C[C@@H]1c1ccccc1	.	.	-10.5	.	3.8	.	4.0	1.9
Cc1ccc(S(=O)(=O)N2CCN(C(=O)c3n[nH]c4ccccc34)CC2)cc1	.	.	15.8	.	12.7	.	6.1	4.5
Cc1nnc(NC(=O)C(C)Sc2nnc(CNC(=O)c3ccccc3F)n2C)s1 (stereo unspecified)	.	.	-0.7	i	1.7	-9.7	1.0	-0.5
Cc1ccc(S(=O)(=O)NNC(=S)NC(C)(C)C)cc1	2.7	5.8	-16.0	i	4.6	-7.8	0.7	0.1
CCOC(=O)N/N=C(\C)c1cccs1	-2.2	-18.3	.	i	-3.5	-1.9	0.1	-0.2
Cc1cccc(C(=O)Nc2cccc(C(=O)N3CCOCC3)c2)c1	3.6	5.1	-1.3	i	1.7	.	0.3	3.3
CCN(CC)CCNC(=O)CS(=O)Cc1nc(-c2ccc(C)cc2)oc1C (stereo unspecified)	-7.1	2.6	-27.3	i	-22.7	3.5	-5.0	2.8
CCNCC(=O)N1c2ccccc2CCc2ccc(NC(=O)OCC)cc21	-5.9	-3.4	-8.6	i	.	0.4	-0.1	0.2
CCCCn1c(N)c(N(CCC(C)C)C(=O)C(C)N2C(=O)c3ccccc3C2=O)c(=O)[nH]c1=O (stereo unspecified)	.	.	.	i	1.3	.	5.0	0.4
O=C(NN=C1CCC(=NNC(=O)c2cccnc2)CC1)c1cccnc1	3.9	0.7	.	i	17.9	17.1	-1.3	0.7
Cc1ccc(-c2ocnc2C(=O)N2CCN(C(=O)c3cccs3)CC2)cc1	4.3	1.0	-8.2	i	-2.0	-3.2	0.4	1.5
COc1ccc(O)c(/C=N/NC(=S)NCCc2ccccc2)c1	-6.7	3.3	-34.9	i	6.0	55.8	8.6	-4.0
CCOC(=O)C1=CC[C@@H](c2cc3ccc(OC)cc3n2C)N(S(=O)(=O)c2ccc(C)cc2)[C@H]1C(=O)OCC	.	.	-11.9	.	-114.8	-16.1	5.7	-9.0
COc1ccc(NC(=O)CN2CCc3ccccc3C2)c([N+](=O)[O-])c1	14.5	4.0	0.3	.	0.4	3.3	2.2	2.6
CC(Nc1nc(-c2cccnc2)nc2ccccc12)c1ccc(F)cc1 (stereo unspecified)	6.3	3.1	-9.2	i	-24.8	-2.6	-4.7	-5.5
CC1CCc2nc(NC(=O)CN3CCN(c4ccc(F)cc4)CC3)sc2C1 (stereo unspecified)	-4.4	-1.7	-11.4	i	0.2	5.2	14.1	-5.3
O=C1CN(C(=O)c2ccc(Br)o2)C(c2ccc(F)cc2)c2cc(Cl)ccc2N1 (stereo unspecified)	-6.4	1.7	1.7	i	?	1.5	-53.6	-29.8
O=C(O)C(F)=C1c2ccccc2-c2ccccc21	.	.	-8.8	i	1.9	-3.7	3.0	8.5
COc1ccc(CC(=O)NCc2nnc(SCC(=O)N3CCN(c4ccccc4)CC3)n2C)cc1	.	.	-9.5	.	-7.4	.	-0.4	3.5
CCCCCCCCSc1n[nH]c(N)n1	-12.2	-0.8	.	i	15.3	18.9	2.5	-0.5
COC(=O)[C@]1(C)N[C@H](c2ccc(-c3ccccc3)cc2)[C@@H]2C(=O)N(C)C(=O)[C@@H]21	.	.	11.7	i	-25.5	-15.3	8.0	0.3
CCOC(=O)Cc1csc(NC(=O)COc2ccc(C)cc2)n1	-6.0	2.1	-2.1	i	2.1	-6.5	2.0	3.8
Clc1ccc(N2CCN(/N=C/c3ccncc3)CC2)cc1	2.6	1.0	-34.6	i	19.7	24.6	5.6	-18.8
CCc1cccc(NC(=S)N(CCN(C)C)C2CCN(C(C)C)CC2)c1	9.1	10.5	-12.7	i	-8.0	.	0.8	-0.5
COc1ccc(OC)c(S(=O)(=O)NCCCn2ccnc2)c1	-7.7	1.0	-24.2	i	-18.3	-4.1	-1.5	-4.2
CC(C(=O)N1CCc2ccccc21)N1CCN(c2ccccn2)CC1 (stereo unspecified)	51.8	-6.4	.	i	-17.3	-3.8	6.5	4.1	eIF4H inh retest=-11.2;PABP FP inh retest=22.9
CCOC(=O)Cc1cc(=O)n2[nH]c(C)c(-c3ccccc3OC)c2n1	10.9	3.2	-22.7	i	24.2	-6.6	0.1	6.3
COc1cc(/C=N/Nc2ccc(S(N)(=O)=O)cc2)cc(OC)c1OC	-5.4	1.7	.	i	20.7	-11.2	7.0	-3.7
O=C(CSc1nc(=O)n(CCN2CCOCC2)c2c1CCCC2)Nc1ccc(F)cc1F	.	.	27.8	i	1.2	-8.5	0.5	0.6
Cc1ccccc1-n1c(SC(C)C(=O)NCC2CCCO2)nnc1-c1ccncc1 (stereo unspecified)	.	.	-10.5	.	-11.2	.	-4.9	0.5
COC(=O)c1sccc1NC(=O)c1ccccc1[N+](=O)[O-]	3.9	-0.6	.	i	.	-22.4	0.4	1.9
CN1C(=O)C(=O)/C(=C(/O)c2ccc(Br)cc2)C1c1ccccc1F (stereo unspecified)	2.6	-7.1	-6.7	i	0.0	-5.0	-0.3	4.7
COc1cc(OC)c(N(C)S(=O)(=O)c2cccc(C(=O)OCC(=O)N3CCOCC3)c2)cc1Cl	.	.	12.5	.	1.0	.	5.1	-1.8
CC(C)Cc1cc(C(=O)Nc2cccnc2)no1	-3.5	-8.5	-43.4	i	-30.0	-9.6	3.6	3.7
O=C(COC(=O)c1sc2ccccc2c1Cl)NC1CCCCC1	-5.7	1.5	.	i	3.4	2.0	2.6	0.6
Cc1cc(=O)oc2cc(OCC(=O)N3CC[C@@]4(O)CCCC[C@H]4C3)c(Cl)cc12	0.4	6.5	-12.6	i	.	11.3	-3.9	-4.2
O=C(Nc1cc(C(F)(F)F)ccc1-n1cncn1)c1ccc(-c2ccccc2)cc1	2.9	-10.0	-9.1	i	-44.7	53.6	1.0	-4.3
COc1ccc(/C=C2\Oc3cc(OCC(=O)N4CC(O)C[C@H]4C(=O)O)ccc3C2=O)cc1OC (stereo partly specified)	3.6	-2.0	1.0	i	.	-6.0	7.3	5.8
COc1cc(/C=C/C(=O)OCC(=O)NC2CC2)cc(S(=O)(=O)N2CCc3ccccc32)c1OC	-0.4	-5.8	1.8	i	7.3	.	1.6	2.5
O=C1c2ccc3c4c(ccc(c24)C(=O)N1NC(=O)C(F)(F)F)CC3	19.2	15.7	.	i	-32.8	-3.1	0.0	4.8
O=C(NCCCn1ccnc1)Nc1cccc(Cl)c1	-6.1	3.3	-8.6	i	-27.7	3.0	-1.1	-2.4
CSc1ncccc1C(=O)Nc1nnc(C2CC2)s1	4.2	-8.5	.	i	-17.5	-0.9	1.1	3.9
CC1(C(=O)NCc2ccc(C(F)(F)F)cc2)CCN1C1Cc2ccccc2C1 (stereo unspecified)	.	.	3.3	.	33.9	.	-4.6	-13.1
Cc1ccc(C(=O)Nc2cccc3[nH]c(C(F)(F)F)nc23)cc1	2.5	-4.6	-5.7	i	32.9	23.9	0.8	-29.6
CCCC(=O)Nc1cc(C)c(NC(=O)c2ccncc2)cn1	-3.6	-3.0	-22.0	i	.	-10.7	-5.9	1.1

Molecules listed so far containing a tert-butyl group:
SMILES	PABP FP inh	eIF4H inh	UUG fidelity	Rce1 inh	Env fusion inh	CSC inhib	MT1-MMP act inh	MT1-MMP act inh RFP	others
CC(C)(C)OC(=O)C[C@@H]1C/C=C\C[C@H](CC(=O)NCCO)C(=O)N[C@@H](c2ccccc2)COC1=O	.	.	-2.0	.	-6.2	5.8	1.9	5.5
Cc1ccc(S(=O)(=O)NNC(=S)NC(C)(C)C)cc1	2.7	5.8	-16.0	i	4.6	-7.8	0.7	0.1

A stretch from further up:
SMILES	PABP FP inh	eIF4H inh	UUG fidelity	Rce1 inh	Env fusion inh	CSC inhib	MT1-MMP act inh	MT1-MMP act inh RFP	others
Cc1ccccc1-n1c(SC(C)C(=O)NCC2CCCO2)nnc1-c1ccncc1 (stereo unspecified)	.	.	-10.5	.	-11.2	.	-4.9	0.5
COC(=O)c1sccc1NC(=O)c1ccccc1[N+](=O)[O-]	3.9	-0.6	.	i	.	-22.4	0.4	1.9
CN1C(=O)C(=O)/C(=C(/O)c2ccc(Br)cc2)C1c1ccccc1F (stereo unspecified)	2.6	-7.1	-6.7	i	0.0	-5.0	-0.3	4.7

Other structures:
SMILES	PABP FP inh	eIF4H inh	UUG fidelity	Rce1 inh	Env fusion inh	CSC inhib	MT1-MMP act inh	MT1-MMP act inh RFP	others
CCC(=O)NC(Nc1sc2c(c1C(=O)OC)CCC2)C(Cl)(Cl)Cl (stereo unspecified)	17.1	7.6	-31.4	i	.	12.7	-9.3	-12.4
O=C(CSc1nnc(-c2ccco2)o1)N1CCCCC1	-6.6	-6.4	3.9	i	-6.5	.	-0.1	-0.9
CCOC(=O)C1=C(C)NC(C)=C(C(=O)OCC)C1C(=O)OCC(=O)Nc1ccc(NC(C)=O)cc1	.	.	-0.8	.	2.3	.	-0.9	-3.1
Cn1ccc2c(N(c3ccccc3)C3CCCCC3)cc3c(c21)C1CCC3O1 (stereo unspecified)	.	.	-17.7	.	10.3	.	1.0	-1.4
COc1ccccc1Nc1ncnc2ccc(C)cc12	1.8	2.2	-11.7	i	.	4.9	-1.6	-1.7
Cc1cc(NCc2ccco2)n2c(nc3ccccc32)c1C#N	27.5	25.6	15.4	?	.	-6.5	-55.0	-2.0
O=C(/C=C/c1ccccc1)OCC(=O)c1c[nH]c2ccccc12	.	.	.	.	-16.0	8.2	4.6	0.5
Cc1cc(NC(=O)COc2ccc(Cl)cc2Cl)n(CCC#N)n1	8.7	-10.4	.	i	.	1.6	1.8	-10.5
C[C@H](O)C#Cc1cnc2c(c1)C(=O)N([C@H](C)CO)C[C@@H](C)[C@H](CN(C)C(=O)Nc1ccc(C(F)(F)F)cc1)O2	.	.	-17.7&12.4	.	-3.0	.	0.2	-1.7
CCOCC(=O)OCC(=O)NC12CC3CC(CC(C3)C1)C2	-6.6	16.2	.	i	1.0	-9.5	-3.1	1.6
COc1ccc(OC)c(-c2cnc(OC(C)(C)C)nc2OC(C)(C)C)c1	?	-10.6	10.0	i	-177.9	51.4	0.1	4.0
CC1(C)Nc2ccccc2C(=O)N1NC(=O)c1ccccc1	-6.4	1.5	3.8	i	3.7	-6.5	0.5	-0.8
COc1ccc(CN(C)S(=O)(=O)c2nnc(NC(=O)c3cccc(OC)c3)s2)cc1	4.0	-0.6	-14.1	i	-6.7	23.9	4.9	-1.2
Cc1ccc(C(C)C)cc1OCC(=O)N/N=C/c1ccc2c(c1)OCCO2	18.9	6.2	.	i	4.3	38.2	-6.4	-9.1
Cc1ccc(C(=O)CSc2nnc(-c3c[nH]c4ccccc34)o2)cc1	-0.9	-4.8	-3.5	i	-22.7	-1.9	4.5	4.6
